# HCMV NEC inh: inhibitors of HCMV UL50-UL53 nuclear egress complex interaction | HTRF UL50-UL53 interaction, normalized percent inhibition | inhibition, % (no concentration beside the values) | actives 0.15% (n = 190,000) | AID 1918969;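 active means both replicates at 50% or more, plus weaker picks with an unusually low signal ratio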;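 further: stock transfer was 100 nL into about 20 µL; 0% = negative control wells and 100% = wells with untagged competitor protein; inactives centre near -12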
# Sa growth inh: blocks Staphylococcus aureus growth. S. aureus RN4220 growth, OD600, 20 h, 42 °C; stronger effect = lower value. relative growth, % (concentration not given with the values). actives 0.53% (n = 170,000). AID 720641;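 active means growth at 42 °C up to 50% and 20 or more points under that at 30 °C, or under 10% at both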;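 further: 300 nL library stock went into each well; scaled to the means of positive and negative controls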
# GIV Gai3 FP: GIV-Galpha-i interaction inhibition; P08753; Galpha-i3/FITC-GIV peptide fluorescence polarization, 90 min; stronger effect = lower value; scaled: aluminum fluoride 0%, vehicle 100%; percent of control (FP), % (test concentration not listed); actives 0.42% (n = 210,000); AID 1224905;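 active means replicate mean at 85% of control or lower, very high polarization wells dropped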;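 further: wells of about 15 µL received 100 nL stock; the first replicate is given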
# Target sequence (P08753 whole entry, looked up): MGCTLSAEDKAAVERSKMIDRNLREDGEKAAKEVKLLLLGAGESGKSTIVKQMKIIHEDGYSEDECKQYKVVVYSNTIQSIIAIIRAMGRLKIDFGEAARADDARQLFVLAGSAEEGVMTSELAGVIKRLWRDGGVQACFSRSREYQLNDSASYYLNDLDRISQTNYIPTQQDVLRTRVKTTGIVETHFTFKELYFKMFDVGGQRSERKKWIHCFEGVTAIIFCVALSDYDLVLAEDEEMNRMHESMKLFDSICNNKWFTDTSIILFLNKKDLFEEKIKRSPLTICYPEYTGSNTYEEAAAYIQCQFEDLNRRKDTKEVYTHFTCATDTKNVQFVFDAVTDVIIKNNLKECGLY
# Sa growth inh second temp: also measured in Sa growth inh; calls as there; relative growth, %; measured here: growth at 30 °C;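 optical density after 20 h as mean of two plates; 100% = untreated growth and lower means inhibition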
# The depositor's hits bear a star; . = no result given; & = joins results of further samples. An unsorted share of the library; overall some 0.82% were active at least once.
# Start of the data: the first 3 entries as a preview:
# Values run as follows: HCMV NEC inh, Sa growth inh, Sa growth inh second temp, GIV Gai3 FP
CSc1ccc(CNc2ccccn2)cc1
 : -1.2, 99.2, 74.2, 102.4
CN(C)c1ccc(NC(=O)Cn2c(SCc3ccccc3F)nc3cccnc32)cc1
 : ., 100.0, 96.0, 106.3
Cc1ccc(-c2ccc(SCc3nc(-c4ccc(C)cc4)no3)nn2)cc1
 : -14.1, ., ., 107.6

# The whole of this part, from the first entry:
# Values run as follows: HCMV NEC inh, Sa growth inh, Sa growth inh second temp, GIV Gai3 FP
CSc1ccc(CNc2ccccn2)cc1
 : -1.2, 99.2, 74.2, 102.4
CN(C)c1ccc(NC(=O)Cn2c(SCc3ccccc3F)nc3cccnc32)cc1
 : ., 100.0, 96.0, 106.3
Cc1ccc(-c2ccc(SCc3nc(-c4ccc(C)cc4)no3)nn2)cc1
 : -14.1, ., ., 107.6
CCOC(=O)c1ccc(NC(=O)CCc2c(C)nc3cc(-c4ccc(OC)cc4OC)nn3c2C)cc1
 : -26.4, 109.3, 88.9, 101.7
CSc1nnc(C)c(=O)n1COC(=O)/C=C/c1ccc2c(c1)OCO2
 : -24.3, 116.1, 82.6, 97.8
CC1=C(C(=O)Nc2ccccc2)C(c2ccc(C(C)C)cc2)n2ncnc2N1 (stereo not drawn)
 : -13.6, 95.5, 94.2, 99.5
O=C(c1ccccc1)N1CCCn2c1nc1ccccc12
 : -7.2, 103.2, 81.6, .
O=C(Nc1ccc(Cl)cc1)c1nn2c(c1Br)NC(c1cccs1)CC2C(F)(F)F (stereo not drawn)
 : -6.6, ., ., 92.9
Oc1ccc(C=NCC2OCCc3ccccc32)cc1 (stereo not drawn)
 : ., 109.4, 81.4, 99.7
COc1nc(NC(=O)c2ccc(F)cc2)nc(OC)c1-c1ccccc1
 : -25.9, 81.7, 85.8, .
CCC1CCCCN1CCCN1C(=O)c2cc3occc3n2CC1(C)C(=O)NC1CCC(C)CC1 (stereo not drawn)
 : -14.1, ., ., 105.9
O=C1/C(=C/c2ccccc2O)N=C2CCCCCN12
 : ., 114.0, 87.7, 103.2
O=C(NC1CCN(C(=O)c2ccco2)CC1)c1ccccc1
 : 0.2, 111.6, 91.4, 106.2
C=CCOc1nc(NCC)nc(N(C)C)n1
 : ., 88.8, 91.5, 105.0
CC(Nc1cc(C)ccn1)=C(C#N)C#N
 : ., 105.1, 86.2, 100.6
CCn1c(N)c(C(=O)COC(=O)c2c(C)nn(Cc3ccccc3)c2Cl)c(=O)[nH]c1=O
 : -3.8, 100.0, 99.9, .
N#CC(C#N)=CNc1ccccn1
 : -158.0, 88.8, 81.7, 120.4
CCC1NC(C(=O)O)CS1 (stereo not drawn)
 : -0.1, 107.6, 55.9, 99.8
CNC(=S)N1CCN(c2nc3ccccc3s2)CC1
 : -1.3, 94.2, 97.7, 95.0
CC(C)(C)c1cc(NC(=O)CSc2ccc(S(=O)(=O)N3CCCC3)cn2)on1
 : -5.6, 128.0, 87.6, .
Cc1ccc(CS(=O)(=O)Cc2ccc(C(=O)NC3CC3)o2)cc1
 : -2.9, 94.6, 94.1, 103.9
Cn1cc(C(=O)NCc2ccccc2)c(=O)c2cc(S(=O)(=O)N3CCCCCC3)ccc21
 : ., 97.0, 102.4, 106.9
Cc1ccc(C)c(NC(=O)C(Sc2cccc[n+]2[O-])c2ccccc2)c1 (stereo not drawn)
 : -24.6, 100.9, 78.7, .
CN(C(=S)SCC1=CCS(=O)(=O)C1)C1CCS(=O)(=O)C1 (stereo not drawn)
 : -27.9, 99.8, 98.2, 97.3
Cc1ccnc2c(NC(=O)c3ccc(N4C(=O)C5C6C=CC(C6)C5C4=O)cc3)cccc12 (stereo not drawn)
 : -12.3, ., ., 110.0
O=C(O)c1cc(N2CCN(CC(=O)N3CCCCC3)CC2)ccc1NC(=O)C1CCC1
 : -31.8, ., ., 98.1
CCC(C)NC(=O)CSc1nc2n[nH]c(C)c2c(=N)n1-c1ccc(OC)cc1 (stereo not drawn)
 : 1.6, 94.5, 91.2, .
CCNc1nc(NN)nc(NCC)n1
 : -37.4, 77.4, 87.6, .
CCOC(=O)C1CCCN(CC(=O)Nc2nccs2)C1 (stereo not drawn)
 : -10.1, 93.2, 82.8, 105.3
O=C(NCc1ccc(F)cc1)c1ccc2c(c1)N(Cc1ccc(F)cc1Cl)C(=O)CS2
 : -10.3, 113.8, 86.2, 100.3
CC1=C(C(=O)Nc2ccccn2)C(c2ccc(OCc3ccccc3)cc2)n2nnnc2N1 (stereo not drawn)
 : 10.7, ., ., 104.7
CC1CS(=O)(=O)N(c2ccc(S(=O)(=O)Nc3ccc(N(C)C)cc3)cc2)C1=O (stereo not drawn)
 : 5.2, ., ., 112.9
CCN(CC)CCCN1C(=O)CSC1c1ccc2c(c1)OCO2 (stereo not drawn)
 : -20.5, 89.2, 87.6, 108.5
O=C1c2ccccc2-c2n[nH]c(=S)nc21
 : -170.2, 36.6, 14.6, 96.7
CCOC(=O)C1=C(CN2CCN(C)CC2)NC(=O)NC1c1ccc(F)cc1 (stereo not drawn)
 : ., 111.2, 99.0, 102.9
CN(CCC#N)C(=S)Nc1ccc(S(=O)(=O)N2CCOCC2)cc1
 : 1.1, 91.0, 93.3, .
CSc1ccc(CNC(=O)C2CCCN(S(=O)(=O)N(C)c3ccc(F)cc3)C2)cc1 (stereo not drawn)
 : -11.5, 106.8, 91.9, 100.0
CCOC(=O)C1=C(C)NC2(O)CC1C1COC2O1 (stereo not drawn)
 : -9.1, 102.5, 86.6, .
O=[N+]([O-])c1cc(-c2nc(-c3ccccc3)no2)ccc1N1CCOCC1
 : -24.4, 106.2, 89.0, 104.7
N#Cc1cccnc1N1CCN(C(=O)Nc2cccc3ccccc23)CC1
 : -64.5, 90.3, 82.2, 101.5
CC1CCC(NC(=O)c2ccc(N3C(=O)CCC3=O)cc2)CC1 (stereo not drawn)
 : 13.3, 112.6, 96.8, .
CC1=C(c2ccc(C)cc2)[N+](=O)C(C)(C)N1[O-]
 : ., 87.2, 91.3, 104.6
O=C(CSc1nc2c(sc3ncccc32)c(=O)n1Cc1ccc(F)cc1)Nc1ccc(F)c(F)c1
 : 63.8*, ., ., 100.5
CN1CCC/C1=C1\C(=O)N(c2ccccc2)N=C1NC(=O)Nc1cccc(Cl)c1
 : -11.0, 108.5, 97.7, .
Cc1ccc(NC(=O)C/C(N)=N/O)cc1C
 : -31.5, 153.7, 97.6, 110.9
CCc1cc(-c2n[nH]c(CCC(=O)O)c2-c2nc3ccccc3n2C)c(O)cc1O
 : 0.2, 82.5, 80.7, .
CCS(=O)(=O)NCc1cccn1Cc1cccc(C)c1
 : -10.0, ., ., 117.0
COc1ccc2c(c1)c1c(c(=O)n(CCc3ccccc3)c(=O)n1Cc1ccc(F)cc1)n2C
 : ., 85.8, 77.5, 112.6
COc1ccccc1NS(=O)(=O)c1ccc2oc(SC)nc2c1
 : -30.4, 106.9, 94.7, .
Cc1oc2c(c1C(N)=O)CCCC2
 : 7.4, 106.4, 88.8, .
COc1ccc([N+](=O)[O-])cc1-c1ccc(/C=c2/sc3nc4cc(C)c(C)cc4n3c2=O)o1
 : -21.7, ., ., 102.0
COc1ccc(C2CCCCCN2C(=O)CCN2C(=O)COc3ccccc32)cc1 (stereo not drawn)
 : 8.2, 115.8, 97.6, .
CCCOc1ccc(C2C(=O)N(C3CCCCCC3)CC(=O)N2CCC)cc1OC (stereo not drawn)
 : ., 97.8, 86.8, 102.9
CC(C)NC(=O)c1ccc2c(c1)nc(CN1CCN(S(=O)(=O)c3cc(F)cc(F)c3)CC1)n2C
 : 8.5, ., ., 99.4
Cc1ccc2oc(=O)cc(CN3CC(C)OC(C)C3)c2c1 (stereo not drawn)
 : -39.9, 97.4, 78.5, 106.1
CC(CNC(=O)c1sc2ncccc2c1-n1cccc1)c1ccccc1 (stereo not drawn)
 : ., 96.5, 87.4, 100.5
CC(=O)Nc1ccc(OCc2ccc3ccccc3n2)cc1
 : -3.6, 112.6, 66.2, 98.0
NS(=O)(=O)c1ccc(CCNC(=O)CCCN2C(=O)c3cccnc3Sc3ccccc32)cc1
 : -16.7, ., ., 101.0
CCN1C(=O)c2ccccc2S(=O)(=O)c2ccc(C(=O)N3CCc4ccccc43)cc21
 : ., 96.8, 87.1, 96.7
CCN1CCN(C(=O)C23CC4CC(C)(CC(C)(C4)C2)C3)CC1
 : -5.3, 91.7, 98.9, 101.4

# As entered above.
# `Cc1oc2c(c1C(N)=O)CCCC2` @ HCMV NEC inh = 7.4
# `Cc1ccc2oc(=O)cc(CN3CC(C)OC(C)C3)c2c1` (stereo not drawn) @ Sa growth inh = 97.4
# `CCCOc1ccc(C2C(=O)N(C3CCCCCC3)CC(=O)N2CCC)cc1OC` (stereo not drawn) @ Sa growth inh second temp = 86.8

# Continuation.
# Values run as follows: HCMV NEC inh, Sa growth inh, Sa growth inh second temp, GIV Gai3 FP
CCCCCc1nnc(NC(=O)Nc2[nH]c(C)c(C(=O)OCC)c2C)s1
 : -30.4, ., ., 98.5
CC(C)(C)c1ccc(OCc2nnc(SCC(N)=O)n2-c2ccccc2)cc1
 : 0.6, 85.5, 82.7, .
O=C(c1ccccn1)c1ccc2ccccc2n1
 : -119.4, 93.4, 85.7, 104.8
O=C(NC1CCCCCC1)C1CCCN(C(=O)N2CCOc3ccccc32)C1 (stereo not drawn)
 : 2.4, 116.7, 92.9, 103.7
COc1cc(/C=C2\SC(=O)NC2=S)ccc1O
 : -44.7, 25.0, 6.8, 120.8
c1nc(N2CCCC2)c2nc3n(c2n1)CCCC3
 : 1.7, ., ., 101.7
O=C(COc1ccccc1C(=O)O)NCCc1ccccc1
 : -35.4, 113.5, 89.9, .
COC(=O)c1cc(C#N)c(SCc2ccc(Cl)cc2)nc1C(OC)OC
 : -5.4, 94.6, 78.5, 99.8
O=C(O)CCSc1cc(-c2ccccc2)nc(SCCC(=O)O)n1
 : -8.2, 90.7, 72.5, 102.0
Cc1cc(=O)n2[nH]c(CN(c3ccccc3)S(=O)(=O)c3ccc(Cl)cc3)nc2n1
 : -15.2, ., ., 103.6
CS(=N)(=O)c1ccc(Oc2cccc(F)c2C#N)cc1 (stereo not drawn)
 : -2.5, 81.1, 87.7, 108.3
Cc1ccc(/C=C/c2nn3c(-c4ccoc4C)nnc3s2)cc1C
 : -12.7, ., ., 117.9
CCOC(=O)N1CCC(NS(=O)(=O)c2ccc(C)c(Cl)c2)CC1
 : -13.7, 100.0, 91.9, 97.3
CC(=O)N/C(=C\c1ccccc1Br)C(=O)O
 : -2.1, 114.2, 52.7, 98.1
CC(C)(C)NC(=O)NCCCn1c(C(F)(F)F)nc2cccnc21
 : -7.0, ., ., 97.2
O=C(NC1CC1)c1cc(-c2ccccc2)nn1-c1ccccc1
 : -3.1, 88.1, 82.2, .
Cc1nn(-c2ccccc2)c(C)c1CN(C)Cn1c(=O)oc2ccccc21
 : -21.3, 94.1, 97.3, .
COc1ccc2ccccc2c1/C=N/NC(=O)C1CC1
 : -50.4, 102.3, 95.7, .
O=C(C1=C(O)C(=O)N(CCN2CCOCC2)C1c1ccccc1)c1ccco1 (stereo not drawn)
 : 18.6, 74.3, 91.5, 103.2
Cc1cc(OCc2nc(C)c(C(=O)Nc3nnc(C4CC4)s3)s2)ccc1Cl
 : -21.8, ., ., 106.1
CC(C)OC(=O)C(C)N=Cc1ccccc1 (stereo not drawn)
 : -10.1, 98.7, 96.2, .
CCSc1nnc(-c2cccc(S(=O)(=O)N(CC)CC)c2)o1
 : -16.1, 64.5, 88.5, .
CCCc1cc(C(=O)N/N=C/c2cnn(C)c2)sc1C
 : -30.8, 78.3, 84.6, .
O=C(Nc1cccc2cccnc12)c1ccccc1[N+](=O)[O-]
 : -28.9, 79.2, 91.7, 103.3
COc1ccc(N2CC(C(=O)Nc3nc4ccc(S(C)(=O)=O)cc4s3)CC2=O)cc1 (stereo not drawn)
 : -19.4, 101.7, 83.5, 106.3
CC(C)(C)c1csc(-c2ccc3nonc3c2)n1
 : -12.8, 89.3, 78.7, 105.5
COC(=O)C1=C(N)C(C(=O)OC)=c2s/c(=C/c3ccccc3)c(=O)n2C1c1ccccc1 (stereo not drawn)
 : -0.2, 87.2, 123.4, .
CCCc1cc2c(=O)c(-c3ccc4c(c3)OCCO4)c(C(F)(F)F)oc2c(C=[N+](C)C)c1O
 : -10.3, 61.1, 90.3, .
Cc1cc(F)ccc1NC(=O)c1ccc2nc(Cc3ccccc3)oc2c1
 : ., 104.7, 89.2, 102.8
NS(=O)(=O)c1ccc(CCNC(=O)c2csc3c2CCCC3)cc1
 : -25.9&-21.1, 95.1, 83.6, 106.2&94.7
Oc1ccccc1-c1nnc(-c2ccccc2)o1
 : -18.1, 80.8, 70.7, 105.3
COc1cccc(-n2c(SCC(=O)Nc3cc(C)ccc3C)nc3c(oc4ccccc43)c2=O)c1
 : -40.6, 100.1, 83.4, 105.3
CC(=O)N1c2ccc(S(=O)(=O)N3CCCC(C(=O)NC4CCCC4)C3)cc2CC1C (stereo not drawn)
 : -38.8, 85.2, 86.3, 105.9
CC(C)(C)c1ccc(OCCOc2ccc(C=C3C(=O)NC(=O)NC3=O)cc2)cc1
 : 20.2, ., ., 93.0
COc1ccc(-c2nc(-c3ccc(C(F)(F)F)cc3)no2)cc1OC
 : -8.5, 90.3, 86.0, 102.4

# Source: PubChem BioAssay
